Assay outcomes (PubChem BioAssay)
Mtb growth: M. tuberculosis H37Rv growth inhibitors, H37Rv strain (AID 1626); M. tuberculosis H37Rv growth inhibition; higher % means a stronger effect; inhibition, % at 10 µM; hits with a dose series show IC50 in µM; 220,000 compounds, 0.95% hits;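 active = confirmed in a dose series; inconclusive = inhibition above 80% but not taken into the dose series; inactive = below 80% or under 30% at every dose of the series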;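 also: bacteria incubated seven days before Alamar blue readout; 0% = bacteria only wells and 100% = bacteria with antibiotic wells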
Mtb betalactam: beta-lactam sensitization of Mtb H37Rv; M. tuberculosis H37Rv growth with meropenem, percent inhibition; hits of this screen are not shown here; inhibition, % at 25 µM; 330,000 compounds, 0.27% hits; AID 434955;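 active = about 74% or more and at least 40 points above the plate without the antibiotic, then above 30% in a dose series; inconclusive = first-round hits that could not be retested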;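 also: growth measured after seven days incubation then overnight dye step; 0% = bacteria only wells and 100% = bacteria with antibiotic; twin plates without the antibiotic show which effects depend on it; some results filed as inactive read as strong as hits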
Arbovirus anti: blocks arbovirus infection; 200,000 compounds, 0.37% hits; inhibition, % at 10 µM; arbovirus infection cell-based antiviral screen;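 active = inhibition from about 30%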;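 also: bluetongue infection of BSR cells; cell survival read as ATP light after 72 h; 0% = infected wells without compound and 100% = uninfected wells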
RecA splice inh: inhibitors of M. tuberculosis RecA intein splicing; cell-free RecA intein splicing, fluorescence; P9WHJ3; 290,000 compounds, 0.75% hits; inhibition, %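 (about 9 µM by stock and volumes)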; in the data active = inhibition above about 30%; inconclusive = no clear call, values can overlap the other calls;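 also: 0% = vehicle wells and 100% = reference inhibitor control wells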
Target sequence (P9WHJ3 whole entry, looked up, canonical isoform): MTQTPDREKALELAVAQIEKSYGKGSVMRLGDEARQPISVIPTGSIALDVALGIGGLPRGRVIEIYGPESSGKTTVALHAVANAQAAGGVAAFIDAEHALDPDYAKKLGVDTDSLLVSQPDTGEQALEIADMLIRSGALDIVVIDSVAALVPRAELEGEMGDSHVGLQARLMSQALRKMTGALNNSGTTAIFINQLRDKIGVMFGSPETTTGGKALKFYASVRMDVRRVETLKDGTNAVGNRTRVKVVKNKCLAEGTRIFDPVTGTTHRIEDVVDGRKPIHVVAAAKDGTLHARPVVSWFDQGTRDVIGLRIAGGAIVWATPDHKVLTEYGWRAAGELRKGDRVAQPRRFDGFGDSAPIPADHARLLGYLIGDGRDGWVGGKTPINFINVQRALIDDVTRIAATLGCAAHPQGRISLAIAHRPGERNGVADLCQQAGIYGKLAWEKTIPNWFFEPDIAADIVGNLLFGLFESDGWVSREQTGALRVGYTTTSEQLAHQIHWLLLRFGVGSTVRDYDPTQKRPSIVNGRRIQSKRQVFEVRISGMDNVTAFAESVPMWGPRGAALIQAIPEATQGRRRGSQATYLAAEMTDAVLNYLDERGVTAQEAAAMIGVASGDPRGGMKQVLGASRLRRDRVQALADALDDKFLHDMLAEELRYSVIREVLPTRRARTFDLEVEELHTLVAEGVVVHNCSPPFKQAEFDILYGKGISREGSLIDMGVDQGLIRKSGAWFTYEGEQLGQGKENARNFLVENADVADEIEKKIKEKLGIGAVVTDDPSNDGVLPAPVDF
YopH PTP inh: YopH (Yersinia) phosphatase inhibition. 140,000 compounds, 0.16% hits. inhibition, %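 (about 10 µM by stock and volumes)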. AID 898. fluorescence Ex485/Em525;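 active = inhibition of 50% or more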;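 also: controls were vehicle for no effect and minimum signal wells for full effect; inactives centre near -20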
Arbovirus anti repeat: further read-out of Arbovirus anti, marked with its call; inhibition, %; measured here: 10K subset replicate screen; many hits read low in the repeat;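 first of two repeat runs on a subset; 0% = infected and 100% = uninfected wells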
* = called active by the depositor; ? = inconclusive; . = no result given. A portion of the library, so the mix of outcomes need not match the whole.

SMILES	Mtb growth	Mtb betalactam	Arbovirus anti	RecA splice inh	YopH PTP inh	others
CCC1CN(C(=O)N2CCC(C(=O)Nc3ccccc3OC)CC2)c2ccccc2O1 (stereo unspecified)	.	4	.	0.7	.
CC(=O)N1CCc2[nH]c3ccccc3c2C1	-1%	-6	-9	-3.8	-33
COC(=O)CCCC(=O)N1CCCC(CCC(=O)NCc2ccc(F)c(F)c2)C1 (stereo unspecified)	-7%	-2	0	5.9	.
COc1cc(C(C)=O)ccc1Oc1ncnc2c1cnn2-c1ccc(C)c(C)c1	14%	8	-3	-4.0	-29
CC(C)(C)C(=O)NC(n1cnc2c(N3CCOCC3)ncnc21)C(Cl)(Cl)Cl (stereo unspecified)	5%	-9	-2	0.5	.
Cc1cc2c(ncn2C(C)C)c(NS(=O)(=O)c2ccc(F)cc2)c1C	.	4	3	-1.5	.
Cc1cc(=O)n2nc(N3CCCC(C(=O)NCc4ccc(Cl)cc4)C3)sc2n1 (stereo unspecified)	.	1	.	-4.8	.
O=C(NC(=S)Nc1ncccn1)c1ccc(Cl)cc1Cl	-7%	-3	2	-0.8	.
COc1ccc(S(=O)(=O)N2CCN(C(=O)N(C)C)C2C)cc1 (stereo unspecified)	.	5	.	-0.3	.
CC(=O)Cn1c(=O)c2c(nc3n2CCCN3Cc2ccccc2)n(C)c1=O	.	-2	.	-41	.

The final 2 compounds of the part above are carried over, then new ones follow:
SMILES	Mtb growth	Mtb betalactam	Arbovirus anti	RecA splice inh	YopH PTP inh	others
COc1ccc(S(=O)(=O)N2CCN(C(=O)N(C)C)C2C)cc1 (stereo unspecified)	.	5	.	-0.3	.
CC(=O)Cn1c(=O)c2c(nc3n2CCCN3Cc2ccccc2)n(C)c1=O	.	-2	.	-41	.
Cn1c(O)c(C=NCc2ccco2)c(=O)n(C)c1=O	-1%	-1	2	5.0	-16
O=C(CCc1nc2ccccc2c(=O)[nH]1)NC1CCN(Cc2ccccc2)CC1	-14%	?	0	0.5	-22
COCCNC(=O)C1CC2Cn3c(nc4cc5ccccc5cc43)C2N1C (stereo unspecified)	-3%	-5	.	-1.3	.
NC1=NC2CS(=O)(=O)CC2S1 (stereo unspecified)	6%	-8	1	-0.8	-17
CCOc1ccc(C2CC(c3ccc(CC)cc3)Nc3nc(N)nn32)cc1 (stereo unspecified)	64%	81	12	3.1	-17	Arbovirus anti repeat=8
O=C(N/N=C/c1cccnc1)c1cccc(NC(=O)c2ccc(Cl)cc2)c1	.	5	.	3.4	.
CCCCNC(=O)c1[nH]c(C)c(C(C)=O)c1C	-2%	-1	-4	-1.1	.
CN1C(=O)/C(=C/c2ccccc2Cl)Sc2ccc(C(=O)NCc3cccnc3)cc21	34%	98	-11	1.8	.
O=C(c1cc(C(=O)c2ccco2)cc(C(=O)c2ccco2)c1)c1ccco1	7%	0	-9	.	21
C=CCn1c(O)c(C=NCCN(C)C)c(=O)[nH]c1=O	-3%	-4	5	-2.1	-40
CCOC(=O)c1c(NC(=O)CC2SC(N)=NC2=O)sc2c1CCC(C)C2 (stereo unspecified)	23%	-2	-16	0.4	-23
CCCCSc1nc2sc3c(c2c(=O)n1-c1ccccc1)CCN(C)C3	.	?	.	-1.3	.
COc1cccc(OCc2cc(C(=O)N(Cc3ccccc3)CC3CC3)no2)c1	.	-3	.	8.4	.
CCOc1ccccc1NC(=O)CCCCCN1C(=O)[C@@H]2Cc3ccccc3CN2C1=O	.	0	.	17	.
O=C(Nc1ccc(O)cc1)N1CCOCC1	.	-18	.	-3.6	.
COc1ccccc1OCCCOc1c(C)cc(C)cc1Br	9%	95	-1	1.2	-46
Cc1ccc(OCC(=O)O)c(-n2nc3ccccc3n2)c1	-17%	7	20	0.1	-30	Arbovirus anti repeat=1
Cc1c(-c2ccccc2)nc(N)c(C#N)c1-c1ccco1	0%	-1	-2	0.5	-14
CC12CCC(=O)N1C(C(=O)NNC(=O)c1ccccc1)CS2 (stereo unspecified)	.	-7	.	-1.2	.
Clc1ccccc1Cn1nnc2ccccc21	.	-2	.	1.0	.
Cc1ccc(-c2nnc3c4ccccc4c(C)nn23)cc1S(=O)(=O)N1CCN(CCO)CC1	-6%	-3	-13	0.8	-36
CNC(=O)c1ccc(NC(=O)/C=C/c2cccc(F)c2)cc1	7%	0	6	-1.7	.
C[N+]1(CC(=O)NNc2c3ccccc3nc3ccccc23)CCOCC1	-5%	0	-9	-8.7	.
CN(C)/C(=N\O)c1c(Cl)cccc1Cl	-8%	-4	.	.	.
O=C(CSc1ncnc2nc[nH]c12)N1CCN(c2ccccc2)CC1	-9%	-8	0	-3.7	-4
COc1ccccc1C(=O)Nc1cccc(NC(=O)c2ccccc2C)c1	.	-6	.	-2.4	.
CCCOn1c(OCC(C)C)nc2ccccc2c1=O	13%	8	6	-0.9	-58
CCC1OC(c2ccc([N+](=O)[O-])cc2)=Nc2ccccc21 (stereo unspecified)	.	1	.	0.7	.
CC1CCCCN1CCNC(=O)c1ccc2c(=O)n(CCc3ccccc3)c(=O)[nH]c2c1 (stereo unspecified)	.	6	0	-1.1	-10	Arbovirus anti repeat=2
Oc1ccc2ccccc2c1CNc1ccccn1	.	4	.	-2.7	.

Reprinted from the part before: 2 entries, followed by the next part.
SMILES	Mtb growth	Mtb betalactam	Arbovirus anti	RecA splice inh	YopH PTP inh	others
CC1CCCCN1CCNC(=O)c1ccc2c(=O)n(CCc3ccccc3)c(=O)[nH]c2c1 (stereo unspecified)	.	6	0	-1.1	-10	Arbovirus anti repeat=2
Oc1ccc2ccccc2c1CNc1ccccn1	.	4	.	-2.7	.
CCc1ccccc1N(CC(=O)N1CCN(c2ccccc2F)CC1)S(C)(=O)=O	-5%	-2	1	-1.1	-24
CCOC(=O)C1CCCN(C(=O)CN(c2ccc(OC)cc2)S(=O)(=O)c2c(C)noc2C)C1 (stereo unspecified)	-5%	2	-4	.	-11	Arbovirus anti repeat=-1
Cc1ccn(CCC(=O)N2c3ccccc3CC2C)n1 (stereo unspecified)	.	-2	.	0.3	.
COc1ccc(-n2nc(C(=O)NCC(=O)N3CCN(C)CC3)c3ccccc3c2=O)cc1OC	-7%	-2	4	0.4	-12
Cn1c(=O)cc(OCC(=O)NCCCN2CCN(c3ccccc3F)CC2)c2ccccc21	-1%	-17	1	-6.6	-14
NS(=O)(=O)c1ccc(S(=O)(=O)N(CCc2ccccc2)Cc2ccccn2)cc1	.	3	.	-1.6	.
Cc1cc(C(=O)NC(C)C2CC2)c(Cl)cc1Cl (stereo unspecified)	.	-3	.	0.0	.
O=C1c2cc(S(=O)(=O)N(CCO)CCO)ccc2-c2ccc(S(=O)(=O)N(CCO)CCO)cc21	.	-6	.	-2.1	.
CCc1nnc(NC(=O)c2ccc(-c3ccccc3F)o2)s1	5%	-8	-9	-2.7	.
N/C(=N\OC(=O)c1ccc2ccccc2c1)c1ccncc1	0%	3	2	2.7	.
COc1ccc(C(=O)COC(=O)C2CCCN2C(=O)C23CC4CC(CC(C4)C2)C3)cc1 (stereo unspecified)	7%	-2	7	5.6	-26
CN(C)Cc1c(C(=O)N/N=C/CCc2ccccc2)nnn1-c1nonc1N	.	-2	.	-4.5	.
O=C(COC(=O)Cc1ccccc1)Nc1cccnc1Cl	0%	-8	11	-2.6	.
CC(=O)Oc1ccc(/C=C(\NC(=O)c2ccco2)C(=O)Nc2ccc(C(C)=O)cc2)cc1	.	-13	.	0.1	.
O=C1C2CCCC1C(N1CCCC1)CC2 (stereo unspecified)	5%	1	3	.	-7
O=C(c1cnc2ccccn2c1=O)N1CCCc2ccccc21	3%	-1	12	.	-32
NCC(c1ccccc1)c1c[nH]c2ccccc12 (stereo unspecified)	-2%	-1	-12	5.8	.
COc1ccc(NC(=O)CSC2=NN3CCCC(=O)N=C3S2)c(OC)c1	.	-1	.	-0.1	.
Cc1ccc(NC(=O)c2oc3ccccc3c2C)c([N+](=O)[O-])c1	-2%	3	1	-3.9	.
COC(=O)c1ccc(CNC(=O)C2CCC(=O)N(CCc3ccccc3)C2)cc1 (stereo unspecified)	.	3	.	-1.3	.
Cc1ccccc1-n1ncc(C(C)NC(=O)c2ccco2)c1C (stereo unspecified)	5%	-3	0	1.0	.
CCc1nc2ccc(C(=O)N3CCN(c4cccc(C(F)(F)F)c4)CC3)cc2nc1CC	.	83	.	2.3	.
Cc1ccc([N+](=O)[O-])c(OCCCN2CCCCCC2)c1	5%	4	-6	2.8	.
CCOc1ccc2nc(SCC(=O)NC(=O)NCc3ccco3)[nH]c2c1	2%	-8	-4	-0.8	-39
CCC(C)NC(=O)CCn1c(=O)c2cccn2c2ccc(F)cc21 (stereo unspecified)	.	12	.	-5.0	.
O=C(NCc1ccccc1)C(c1cccnc1)N(Cc1ccco1)C(=O)c1ccccn1 (stereo unspecified)	-10%	-5	-3	1.8	-31
COc1ccccc1N1CCN(/N=C/c2cccc(OC)c2OC)CC1	3%	87	-1	-0.8	.
CCn1cc(CN2CCCC(C(=O)Nc3ccc(-c4cscn4)cc3)C2)cn1 (stereo unspecified)	.	-5	.	-2.1	.
CCc1ccc(N2C(=O)NC(=O)C(Cc3ccc(OC)cc3OC)C2=O)cc1 (stereo unspecified)	-9%	-4	0	-1.3	-15
CC(OC(=O)c1cccc(NS(C)(=O)=O)c1)C(=O)Nc1ccc(N2CCOCC2)cc1 (stereo unspecified)	0%	-6	11	-0.9	-19
CCOc1ccc(NC(=O)C/C(N)=N/O)cc1	77%	98	0	-1.0	21
COc1ccc(OCCOCCN2CCc3ccccc3C2)cc1	-8%	9	-7	1.1	-3
Cc1ccc2nc3c(cc(C#N)c(=N)n3Cc3cccnc3)c(=O)n2c1	-8%	0	-1	-27	.
CCOC(=O)N1CCN(C(=O)COc2cccc3c2CCN(Cc2ccccc2C)C3=O)CC1	8%	7	10	0.5	5
CCc1ccc(OC(=O)c2cccnc2)cc1	.	0	.	-2.6	.
C/C(Cc1ccccc1)=N\NC(=O)c1cccnc1	6%	?	-3	-0.6	-27
COC(=O)CCC(=O)Nc1sc(Cc2ccccc2)c(C)c1C(N)=O	?	93	-6	-2.5	.
COc1ccc(CNc2ncc(-c3ccccc3)n2C)cc1	.	-9	.	-3.6	.
CC1=C(C(=O)O)N2C(=O)C(NC(=O)CCCC(=O)O)C2SC1 (stereo unspecified)	-3%	2	-4	-3.0	.
CCc1c(C2(O)CCCCC2)[nH]c2cc(C(F)(F)F)ccc12	.	80	.	2.9	.

Three successive compounds already listed:
SMILES	Mtb growth	Mtb betalactam	Arbovirus anti	RecA splice inh	YopH PTP inh	others
CCC1CN(C(=O)N2CCC(C(=O)Nc3ccccc3OC)CC2)c2ccccc2O1 (stereo unspecified)	.	4	.	0.7	.
CC(=O)N1CCc2[nH]c3ccccc3c2C1	-1%	-6	-9	-3.8	-33
COC(=O)CCCC(=O)N1CCCC(CCC(=O)NCc2ccc(F)c(F)c2)C1 (stereo unspecified)	-7%	-2	0	5.9	.

Later entries
SMILES	Mtb growth	Mtb betalactam	Arbovirus anti	RecA splice inh	YopH PTP inh	others
O=C(CN(Cc1ccc(F)cc1)C(=O)CCC(=O)Nc1ccccn1)NCc1ccc(F)cc1	.	-1	.	3.0	.
COc1ccccc1OCC(=O)N1CC2(C)CC1CC(C)(C)C2 (stereo unspecified)	-15%	-14	-1	-0.5	10
CN(C)CCCNS(=O)(=O)c1ccc(NC2CCCCCC2)c([N+](=O)[O-])c1	.	9	.	1.3	.
Fc1ccc(Br)cc1C1C=C(c2ccc(Br)cc2)Nc2ncnn21 (stereo unspecified)	1%	2	71*	-7.9	-14
COc1ccc(/C=C/C(=O)OCC(=O)Nc2ccc(N3CCOCC3)cc2)cc1	11%	2	21	-0.8	.
COc1ccc(NC(=O)C(c2ccccc2)c2ccccc2)cn1	-4%	0	1	0.3	.
COc1ccccc1CNC(=O)Cc1ccc(OC)c(OC)c1	.	3	.	-0.2	.
COc1ccccc1NC(=O)Cn1c(C)nc2c(sc(=S)n2Cc2ccco2)c1=O	.	2	.	1.3	.
COc1ccccc1C(CNC(=O)c1ccc(S(=O)(=O)NCc2ccco2)cc1)N(C)C (stereo unspecified)	-4%	2	6	1.2	-27
CCN(CC)CCn1c(OC)cc(=O)[nH]c1=O	-9%	-11	6	-2.3	-10
CN(CC(=O)Nc1ccccc1Br)c1ncnc2sccc12	-6%	-4	14	-0.3	.
O=C(NNC(=S)NC1CC2C=CC1C2)c1ccncc1 (stereo unspecified)	-3%	-4	.	3.5	.
CCN(c1ccc(NC(=O)COC(=O)CCc2nc3ccccc3n2-c2ccccc2)cc1)C(C)C	9%	3	-15	-1.1	-22
CCOc1cc(C)c(Cl)cc1S(=O)(=O)NCc1ccc2c(c1)OCO2	-1%	10	-15	1.4	-15
CCN(CC)C(=O)C1CCCN(C/C(C)=C/c2ccccc2)C1 (stereo unspecified)	0%	.	-5	-4.0	-49
Cc1nnc(SCC(=O)Nc2cc(C(F)(F)F)ccc2N2CCOCC2)o1	-2%	2	-1	0.0	-15
